Screens (PubChem BioAssay)
LANA-H2B inh: blocks KSHV LANA binding to histone H2A/H2B | Q9QR71 | cell-free LANA-H2A/H2B peptide, fluorescence polarization | inhibition, % (test concentration not listed) | 320,000 tested, 0.6% active | AID 2629; in the data active = inhibition mostly above about 10%, no sharp cut-off; inactive = mostly below about 6.7%;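 note: stock transfer was 7.5 nL into about 10 µL; 0% = median of vehicle wells and 100% = median of positive control wells; one replicate is shown; the record names a cut of 25% in any replicate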
B2AR ag: human beta-2 adrenergic receptor agonism by FAP. AID 504454. 340,000 tested, 0.43% active. Am2.2-beta2AR cells, FAP receptor internalization, flow cytometry; reference of the scale not given here. response, % (no concentration beside the values). P07550;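 active = response above a set limit, near 3 SD of response in nonfluorescent compounds, cut at about 42% in these data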;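 note: stock transfer was 100 nL into about 11 µL; a reference agonist was the positive control; negative values mostly stem from fluorescent compounds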
Target sequence (P07550 whole entry, looked up): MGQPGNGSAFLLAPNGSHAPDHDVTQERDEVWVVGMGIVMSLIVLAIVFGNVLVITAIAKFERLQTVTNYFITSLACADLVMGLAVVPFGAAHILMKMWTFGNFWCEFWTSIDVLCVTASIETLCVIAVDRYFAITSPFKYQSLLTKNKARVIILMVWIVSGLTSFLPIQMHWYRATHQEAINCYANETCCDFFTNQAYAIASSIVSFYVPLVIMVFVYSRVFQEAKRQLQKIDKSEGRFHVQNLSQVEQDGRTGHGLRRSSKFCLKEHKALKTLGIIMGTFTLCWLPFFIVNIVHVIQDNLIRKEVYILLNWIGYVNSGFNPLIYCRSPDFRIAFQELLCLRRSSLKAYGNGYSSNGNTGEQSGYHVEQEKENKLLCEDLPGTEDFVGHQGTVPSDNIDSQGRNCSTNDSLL
ALR inh: blocks human ALR sulfhydryl oxidase activity; P55789; purified ALR, DTT oxidation, H2O2 HRP-luminol luminescence; inhibition, % (test concentration not listed); 290,000 tested, 3.8% active;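 active = mean and each replicate at 75% or more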;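 note: stock transfer was 7.5 nL into about 7.5 µL; 0% = neutral wells and 100% = wells with inactivated enzyme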
UCH37 inh: inhibitors of human deubiquitinating enzyme UCH37. 330,000 tested, 0.33% active. inhibition, % (concentration not given with the values). Q9Y5K5. purified proteasome/UCH37, Ub-AMC cleavage fluorescence;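 active = mean of two replicates above 20%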;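 note: 0% = compound-free wells with enzyme and 100% = wells lacking proteasome; stock transfer was 100 nL into about 20 µL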
Target sequence (Q9Y5K5 whole entry, looked up): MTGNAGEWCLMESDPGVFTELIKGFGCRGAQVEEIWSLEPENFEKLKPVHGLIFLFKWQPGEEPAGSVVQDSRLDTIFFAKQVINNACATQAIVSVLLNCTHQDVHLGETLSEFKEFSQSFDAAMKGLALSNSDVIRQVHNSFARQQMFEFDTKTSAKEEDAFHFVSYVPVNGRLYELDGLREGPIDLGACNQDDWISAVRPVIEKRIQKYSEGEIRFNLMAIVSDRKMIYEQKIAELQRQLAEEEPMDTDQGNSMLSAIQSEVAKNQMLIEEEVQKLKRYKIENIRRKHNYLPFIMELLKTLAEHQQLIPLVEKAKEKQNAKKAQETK
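Material: Human UCH37 enzyme supplied as purified proteasome complex | Schedule: 30 min preincubation with enzyme, 25 min cleavage at room temperature | Detection: AMC fluorescence 355/460 nm | Measure: % inhibition of Ub-AMC cleavage fluorescence | Controls: Wells without proteasome as full block, compound-free enzyme plus substrate as uninhibited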
E coli growth: inhibitors of Escherichia coli growth; OD600, 23 h; active compounds read low; OD600 absorbance (test concentration not listed); 330,000 tested, 0.21% active;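 active = OD600 absorbance below the run mean of sample wells minus 3.6 SD, in any replicate, cut at about 0.56 in these data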;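 note: stock transfer was 300 nL into about 60 µL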
HNF4A DNA FP: change in binding of human HNF4 alpha to DNA. activity change, % at 10 µM. 360,000 tested, 0.3% active. HNF4a-FITC DNA binding, fluorescence polarization, 1 h; in the data active = activity change above about 30%, passing the limit was not always enough;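 note: controls were the assay level and a saturating level of protein; the project sought stronger binding though the title names inhibitors; some compounds called inactive have numbers as strong as hits; positive values seem to mean higher polarization but the record does not say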
FGF22 binding: binders of recombinant human FGF22 by thermal shift | Q9HCT0 | SYPRO orange fluorescence; percent of sucrose octasulfate shift, DMSO zero | calls only at 9.99 µM | 340,000 tested, 1.5% active;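 active = melting point raised past a set limit in the mean and every replicate; three in four hits are not shown here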
Target sequence (Q9HCT0 whole entry, looked up): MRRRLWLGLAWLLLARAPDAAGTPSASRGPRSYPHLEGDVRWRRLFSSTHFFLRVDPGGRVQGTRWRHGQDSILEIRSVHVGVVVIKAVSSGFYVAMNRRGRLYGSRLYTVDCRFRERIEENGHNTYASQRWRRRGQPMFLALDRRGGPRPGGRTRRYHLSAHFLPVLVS
Active calls of the source: *.

Screening Cc1cccc(OCC(=O)NN2C(=O)C3C4C=CC(O4)C3C2=O)c1 (stereo unspecified) returned LANA-H2B inh -2.7, B2AR ag 5, ALR inh -16, UCH37 inh 3.0, E coli growth 0.7, HNF4A DNA FP 0.9 and FGF22 binding inactive.
`CCc1ccc(NC(=O)c2ccc3nc(N)sc3c2)cc1` gave LANA-H2B inh 0.5, B2AR ag 7, ALR inh 91*, UCH37 inh 2.2, E coli growth 0.76 and HNF4A DNA FP 0.2.
Screening COc1cc(S(=O)(=O)N2CCCCCC2)ccc1-n1cnnn1 returned LANA-H2B inh 3.7, B2AR ag 9, ALR inh 42, UCH37 inh -1.5, E coli growth 0.69, HNF4A DNA FP 1.9 and FGF22 binding inactive.
For O=C(O)CCCn1cc(NC(=O)COc2ccc(F)cc2F)cn1 the results were LANA-H2B inh 2.0, B2AR ag 8, ALR inh -19, UCH37 inh 4.6, E coli growth 0.71, HNF4A DNA FP 0.8 and FGF22 binding inactive.
For Cc1ccc(CNC(=O)CNS(=O)(=O)c2ccc3nc(C)sc3c2)cc1 the results were LANA-H2B inh 8.7, B2AR ag 2, ALR inh -13, UCH37 inh -1.2, E coli growth 0.64, HNF4A DNA FP -0.8 and FGF22 binding inactive.
For COc1cccc(NC(=O)CN(C)C(=O)Cn2[nH]c(=O)c3ccccc3c2=O)c1 the results were LANA-H2B inh 1.0, B2AR ag -7, ALR inh -4, UCH37 inh -0.6, E coli growth 0.71 and HNF4A DNA FP 0.2.
`CN(C(=O)CN1CCC(NC(=O)C2CCCCC2)CC1)C1CCCCC1` gave LANA-H2B inh 3.4, B2AR ag 5, ALR inh -4, UCH37 inh -0.9, E coli growth 0.72 and HNF4A DNA FP 4.5.
For CC(=O)c1ccc(NC(=O)COC(=O)C2CCN(S(=O)(=O)c3cccs3)CC2)cc1 the results were B2AR ag -4, UCH37 inh 0.9, E coli growth 0.66, HNF4A DNA FP -2.0 and FGF22 binding inactive.
Screening CC(=O)Nc1ccc(NC(=O)C(C)OC(=O)C2(c3ccccc3F)CCCC2)cc1 (stereo unspecified) returned LANA-H2B inh -3.6, B2AR ag -3, UCH37 inh 3.4, E coli growth 0.67, HNF4A DNA FP 2.6 and FGF22 binding inactive.
`CC(C)n1cc(C(=O)NC2CC(C)(C)Cc3c2cnn3-c2ccccc2)cn1` (stereo unspecified) gave LANA-H2B inh 4.6, B2AR ag -2, ALR inh 42, UCH37 inh 1.2, E coli growth 0.68, HNF4A DNA FP 3.1 and FGF22 binding inactive.
For CCOC(=O)Cc1nc2cc(Cl)ccc2o1 the results were LANA-H2B inh -1.8, B2AR ag 7, ALR inh -12, UCH37 inh 2.3, E coli growth 0.67, HNF4A DNA FP 0.8 and FGF22 binding inactive.
For N#Cc1c(-c2cccnc2)c2c([nH]c1=O)-c1ccccc1OC2 the results were LANA-H2B inh -1.0, B2AR ag 16, ALR inh -3, UCH37 inh inactive, E coli growth 0.65, HNF4A DNA FP -1.1 and FGF22 binding inactive.
C#CCOCCOCCOCCNc1nc(N2CCN(C(=O)[C@H](CCCN=C(N)N)n3cc(C(N)[C@H](C)CC)nn3)CC2)nc(N2CCN(C(=O)[C@H](CC(N)=O)n3cc(C(N)[C@@H](C)CC)nn3)CC2)n1 (stereo partly specified) was read as LANA-H2B inh 0.9, B2AR ag 5, UCH37 inh 7.9, E coli growth 0.71, HNF4A DNA FP 3.8 and FGF22 binding inactive.
Screening CC(C)(C)c1ccc(-c2nnc(N)o2)cc1 returned LANA-H2B inh 1.6, B2AR ag 2, ALR inh -10, UCH37 inh 1.2, E coli growth 0.64, HNF4A DNA FP -7.0 and FGF22 binding inactive.
`COC(=O)c1ccc(Cc2ccccc2)o1` gave LANA-H2B inh 0.7, B2AR ag 15, ALR inh 0, UCH37 inh 2.3, E coli growth 0.71 and HNF4A DNA FP -6.9.
Screening COc1ccc2[nH]c(C(=O)O)c(CCC(=O)O)c2c1 returned LANA-H2B inh 2.0, B2AR ag 0, ALR inh -7, UCH37 inh -25, E coli growth 0.7 and HNF4A DNA FP 1.1.
Screening O=C(NCCCl)Nc1ccccc1OCCOc1ccccc1NC(=O)NCCCl returned LANA-H2B inh 3.1, B2AR ag -2, ALR inh -3, UCH37 inh 1.7, E coli growth 0.64, HNF4A DNA FP -1.1 and FGF22 binding inactive.
`Cc1ccc(-c2cc(C(=O)N3CCOCC3)no2)cc1` gave LANA-H2B inh -0.4, B2AR ag 4, ALR inh 6, UCH37 inh 2.3, E coli growth 0.68, HNF4A DNA FP 0.1 and FGF22 binding inactive.
O=C(Cn1c(=O)oc2cc(S(=O)(=O)N3CCCC3)ccc21)N1CCN(c2ccccn2)CC1 was read as LANA-H2B inh 0.6, B2AR ag 11, ALR inh -8, UCH37 inh 3.2, E coli growth 0.73, HNF4A DNA FP 0.3 and FGF22 binding inactive.
Screening COc1ccc(Cl)cc1NC(=O)CSc1nc(C)cc(C)n1 returned LANA-H2B inh 3.3, B2AR ag -22, UCH37 inh 2.5, E coli growth 0.72, HNF4A DNA FP 0.8 and FGF22 binding inactive.

Not a retest: 4 of the compounds above.
Screening O=C(NCCCl)Nc1ccccc1OCCOc1ccccc1NC(=O)NCCCl returned LANA-H2B inh 3.1, B2AR ag -2, ALR inh -3, UCH37 inh 1.7, E coli growth 0.64, HNF4A DNA FP -1.1 and FGF22 binding inactive.
`Cc1ccc(-c2cc(C(=O)N3CCOCC3)no2)cc1` gave LANA-H2B inh -0.4, B2AR ag 4, ALR inh 6, UCH37 inh 2.3, E coli growth 0.68, HNF4A DNA FP 0.1 and FGF22 binding inactive.
O=C(Cn1c(=O)oc2cc(S(=O)(=O)N3CCCC3)ccc21)N1CCN(c2ccccn2)CC1 was read as LANA-H2B inh 0.6, B2AR ag 11, ALR inh -8, UCH37 inh 3.2, E coli growth 0.73, HNF4A DNA FP 0.3 and FGF22 binding inactive.
Screening COc1ccc(Cl)cc1NC(=O)CSc1nc(C)cc(C)n1 returned LANA-H2B inh 3.3, B2AR ag -22, UCH37 inh 2.5, E coli growth 0.72, HNF4A DNA FP 0.8 and FGF22 binding inactive.

(next part)
CN(CCc1cnn(C)c1)Cc1cn(C)nc1-c1ccc2c(c1)OCCO2 was read as LANA-H2B inh -1.3, B2AR ag -6, ALR inh -3, UCH37 inh 3.1, E coli growth 0.72, HNF4A DNA FP 4.1 and FGF22 binding inactive.
`COc1cc(C)c(NC(=O)c2cc(C3CC3)nc3c2cnn3C(C)C)cc1OC` gave LANA-H2B inh -379, B2AR ag -1, ALR inh -15, UCH37 inh 6.4, E coli growth 0.64, HNF4A DNA FP -0.2 and FGF22 binding inactive.
For CSc1ccc(CN(C)CC(=O)NC(C)c2ccccc2)cc1 (stereo unspecified) the results were LANA-H2B inh inactive, B2AR ag -5, ALR inh 0, UCH37 inh -0.3, E coli growth 0.69, HNF4A DNA FP -0.7 and FGF22 binding inactive.
`CC(=O)Nc1ccc(S(=O)(=O)NC(CC(=O)NCCc2ccccc2)C(C)C)cc1` (stereo unspecified) gave LANA-H2B inh -2.7, B2AR ag 1, ALR inh -2, UCH37 inh -0.5, E coli growth 0.68 and HNF4A DNA FP 3.6.
`CCCOP(=O)(c1ccc(N(C)C)cc1)C(O)c1ccc(Br)cc1` (stereo unspecified) gave LANA-H2B inh 2.4, B2AR ag -7, ALR inh 5, UCH37 inh 4.6, E coli growth 0.68, HNF4A DNA FP -1.1 and FGF22 binding inactive.
`Cc1noc(C)c1COc1cccc(C(=O)OCC(=O)NCCN2C(=O)CSC2=O)c1` gave LANA-H2B inh 0.4, B2AR ag -4, ALR inh 17, UCH37 inh 6.0, E coli growth 0.71, HNF4A DNA FP -2.0 and FGF22 binding inactive.
`CCC(C)[C@H]1CN=C(N)N1CCc1cc(C(F)(F)F)cc(C(F)(F)F)c1` (stereo partly specified) gave LANA-H2B inh 0.5, B2AR ag -5, ALR inh -38, UCH37 inh 0.1, HNF4A DNA FP 5.1 and FGF22 binding inactive.
For C/C(CC(=O)Nc1ccc(N(C)C)cc1)=N\NC(=O)Cc1csc(N)n1 the results were LANA-H2B inh 1.8, B2AR ag -3 and HNF4A DNA FP 4.1.
`O=C(NCc1ccc(Cl)cc1)c1cc(-c2cccs2)on1` gave LANA-H2B inh -3.3, B2AR ag -2, ALR inh -14, UCH37 inh 2.3, E coli growth 0.71 and HNF4A DNA FP -2.2.
`CCn1c(NCc2ccco2)nc2c1c(=O)n(C)c(=O)n2C` gave LANA-H2B inh 7.9, B2AR ag -2, ALR inh 0, UCH37 inh 4.5, E coli growth 0.68 and HNF4A DNA FP -2.1.
Screening N#Cc1ccccc1S(=O)(=O)N1CCN(c2nc(-c3cccnc3)nc3ccccc23)CC1 returned B2AR ag 13, UCH37 inh 3.1, E coli growth 0.71, HNF4A DNA FP 2.5 and FGF22 binding inactive.
For Cc1ccc(C)c(S(=O)(=O)N2CCCOC2CNC(=O)C(=O)NCc2ccccn2)c1 (stereo unspecified) the results were LANA-H2B inh 2.8, B2AR ag 3, ALR inh -5, UCH37 inh 3.9, E coli growth 0.73, HNF4A DNA FP -0.1 and FGF22 binding inactive.
C=CCN(C(=O)COc1ccccc1)c1nnc(-c2ccncc2)s1 was read as LANA-H2B inh 2.1, B2AR ag 3, ALR inh -4, UCH37 inh -8.2, E coli growth 0.72 and HNF4A DNA FP 4.8.
Screening COc1cccc(N2CCN(C(=O)C3CCC(=O)N(C4CCCCCC4)C3)CC2)c1 (stereo unspecified) returned LANA-H2B inh 8.6, B2AR ag -1, ALR inh 34, UCH37 inh 2.6, E coli growth 0.69, HNF4A DNA FP 0.4 and FGF22 binding inactive.
For C=C(C)CN(CC)C(=O)CSc1ccc(S(=O)(=O)N2CCN(Cc3ccccc3)CC2)cn1 the results were LANA-H2B inh 3.9, B2AR ag 4, UCH37 inh -1.7, E coli growth 0.66, HNF4A DNA FP -2.6 and FGF22 binding inactive.
Screening O=C(/C=C/c1cccc(F)c1)N1CCN(c2ccccn2)CC1 returned LANA-H2B inh 0.4, B2AR ag -4, ALR inh -9, UCH37 inh 4.6, E coli growth 0.7, HNF4A DNA FP -0.4 and FGF22 binding inactive.
Screening CC1(C)CC2(C)Nc3ccccc3N2C(=S)N1 (stereo unspecified) returned LANA-H2B inh -4.7, B2AR ag 0, ALR inh 12, UCH37 inh 3.8, E coli growth 0.71 and HNF4A DNA FP 1.1.
For COc1ccccc1NC(=O)COc1ccccc1C(=O)Nc1ccccc1 the results were B2AR ag 9, UCH37 inh 0.1, E coli growth 0.69, HNF4A DNA FP -1.5 and FGF22 binding inactive.
For Cc1cc(NC(=O)COc2cccc(C)c2C)no1 the results were LANA-H2B inh 0.4, B2AR ag -3, UCH37 inh 9.6, E coli growth 0.72, HNF4A DNA FP -4.8 and FGF22 binding inactive.
c1ccc2c(-c3cn4ccccc4n3)c[nH]c2c1 was read as LANA-H2B inh 2.0, ALR inh 55, UCH37 inh -348 and E coli growth 0.63.
For Cc1cc(C)c2c(NC(=O)CCl)nn(C)c2n1 the results were LANA-H2B inh -3.7, B2AR ag -7, ALR inh 10, UCH37 inh -1.3, E coli growth 0.71, HNF4A DNA FP 1.1 and FGF22 binding inactive.
Screening CCn1c(SCC(=O)Nc2ccc(OC)c(S(=O)(=O)N3CCCCC3)c2)nnc1C1CC1 returned B2AR ag -2, UCH37 inh 1.4, E coli growth 0.69, HNF4A DNA FP 0.6 and FGF22 binding inactive.
For CC(=O)c1ccccc1OCC(O)Cn1ccnc1 (stereo unspecified) the results were LANA-H2B inh 0.8, B2AR ag -4, ALR inh -1, UCH37 inh -0.4, E coli growth 0.69, HNF4A DNA FP 0.1 and FGF22 binding inactive.

Retrieved by structure from above:
Screening CC1(C)CC2(C)Nc3ccccc3N2C(=S)N1 (stereo unspecified) returned LANA-H2B inh -4.7, B2AR ag 0, ALR inh 12, UCH37 inh 3.8, E coli growth 0.71 and HNF4A DNA FP 1.1.
`CCn1c(NCc2ccco2)nc2c1c(=O)n(C)c(=O)n2C` gave LANA-H2B inh 7.9, B2AR ag -2, ALR inh 0, UCH37 inh 4.5, E coli growth 0.68 and HNF4A DNA FP -2.1.

Only part of the results is shown. The share of hits here may be higher or lower than overall.
